High-throughput results as filed in PubChem BioAssay.
Beta apoptosis = blocks beta cell apoptosis; INS-1E cytokine-induced death, ATP luminescence, 48 h; percent of positive-control rescue, neutral wells zero; protection from apoptosis, % (concentration not given with the values); 300,000 tested, 0.8% active; AID 435005;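 active means all replicates at 75% or more, or half of them and the mean; inconclusive means half reach 75% but not the mean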;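 further: 0% = cytokine-treated negative control wells and 100% = positive control rescue; higher means more ATP so stronger rescue from cytokine killing; wells of about 40 µL received 100 nL stock; the first replicate is given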
LANA-H2B inh = blocks KSHV LANA binding to histone H2A/H2B. AID 2629. Q9QR71. inhibition, % (test concentration not listed). cell-free LANA-H2A/H2B peptide, fluorescence polarization. 320,000 tested, 0.6% active; in the data active means inhibition mostly above about 10%, no sharp cut-off; inactive means mostly below about 6.7%;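 further: stock transfer was 7.5 nL into about 10 µL; 0% = median of vehicle wells and 100% = median of positive control wells; one replicate is shown; the record names a cut of 25% in any replicate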
Target sequence (Q9QR71 whole entry, looked up): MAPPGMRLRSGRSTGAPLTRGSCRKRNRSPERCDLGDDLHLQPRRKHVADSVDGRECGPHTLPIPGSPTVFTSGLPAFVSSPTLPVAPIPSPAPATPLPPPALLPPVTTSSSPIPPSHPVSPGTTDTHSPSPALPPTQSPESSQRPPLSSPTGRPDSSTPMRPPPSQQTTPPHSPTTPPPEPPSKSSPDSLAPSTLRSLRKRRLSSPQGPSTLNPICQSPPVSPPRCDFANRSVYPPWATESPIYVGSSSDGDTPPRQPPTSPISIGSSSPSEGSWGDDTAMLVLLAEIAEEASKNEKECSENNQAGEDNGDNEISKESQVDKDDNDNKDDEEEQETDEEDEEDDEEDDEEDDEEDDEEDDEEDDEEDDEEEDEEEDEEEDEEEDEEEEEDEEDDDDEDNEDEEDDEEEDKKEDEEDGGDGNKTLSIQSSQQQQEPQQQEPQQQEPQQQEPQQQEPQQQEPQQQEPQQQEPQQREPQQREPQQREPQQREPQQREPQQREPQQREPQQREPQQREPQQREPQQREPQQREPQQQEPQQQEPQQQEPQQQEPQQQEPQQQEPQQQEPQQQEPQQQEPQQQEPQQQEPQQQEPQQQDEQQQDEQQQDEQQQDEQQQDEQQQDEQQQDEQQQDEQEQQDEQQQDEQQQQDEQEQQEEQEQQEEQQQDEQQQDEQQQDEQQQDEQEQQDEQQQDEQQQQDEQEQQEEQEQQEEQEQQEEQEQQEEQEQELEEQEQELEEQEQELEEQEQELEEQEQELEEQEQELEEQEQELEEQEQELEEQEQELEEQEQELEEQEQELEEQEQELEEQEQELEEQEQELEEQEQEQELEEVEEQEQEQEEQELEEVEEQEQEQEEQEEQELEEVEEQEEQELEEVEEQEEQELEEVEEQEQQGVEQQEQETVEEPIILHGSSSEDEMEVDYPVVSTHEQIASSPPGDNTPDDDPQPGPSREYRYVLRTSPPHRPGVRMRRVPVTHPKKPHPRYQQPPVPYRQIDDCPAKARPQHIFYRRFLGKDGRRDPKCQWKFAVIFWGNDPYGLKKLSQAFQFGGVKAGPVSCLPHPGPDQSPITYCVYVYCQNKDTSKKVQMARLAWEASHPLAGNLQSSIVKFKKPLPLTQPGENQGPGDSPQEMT
Calb FLC = C. albicans growth modulation with fluconazole | C. albicans CaCi-2 (fluconazole-resistant clinical isolate) + fluconazole, Alamar Blue growth, 48 h | growth inhibition, % (no concentration beside the values) | 300,000 tested, 0.57% active;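 active means most replicates above 75%; inconclusive means exactly half above 75%; inactive means most below 75%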;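 further: all wells also contain fluconazole at 8 µg/ml as a sub-toxic cotreatment; 0% = median of DMSO wells and 100% = median of geldanamycin control wells; wells of about 8 µL received 7.5 nL stock; the first replicate is given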
A1 inh = inhibitors of the anti-apoptotic protein A1, read as caspase activation | MEF A1-2A-BIM cells, Caspase-Glo 3/7 luminescence, 3 h; percent of clofoctol response, vehicle zero | caspase activation, % (no concentration beside the values) | 330,000 tested, 0.066% active;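 active means over half of replicate activation scores above 10%, or exactly half above 10 with the replicate mean above 10; inconclusive means replicate mean below 10 yet half the replicates above 10; inactive means over half of replicates below 10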;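 further: wells of about 30 µL received 50 nL stock; many hits fall short of the cut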
RanGTP-Impb inh = inhibitors of RanGTP-importin-beta interaction, primary screen, biochemical, FRET, CFP-Ran, YFP-importin-beta, homogeneous; cell-free CFP-Ran/YFP-importin-beta FRET ratio; inhibition, % (concentration not given with the values); AID 2216; 300,000 tested, 1.1% active;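 active means most replicates above 15%; inconclusive means exactly half above 15%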;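 further: 0% = DMSO wells and 100% = Ran loaded with GDP instead of GTP; wells of about 40 µL received 100 nL stock; the first replicate is given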
UCH37 inh = blocks the human deubiquitinase UCH37 | Q9Y5K5 | purified proteasome/UCH37, Ub-AMC cleavage fluorescence | inhibition, % (test concentration not listed) | 330,000 tested, 0.33% active;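 active means mean of two replicates above 20%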;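 further: 0% = compound-free wells with enzyme and 100% = wells lacking proteasome; stock transfer was 100 nL into about 20 µL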
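Schedule: 30 min plus 25 min, room temperature / Material: human UCH37 within purified proteasomes / Technique: AMC fluorescence intensity at 355/460 nm / Buffer or medium: pH 7.4 Tris-HCl (50 mM) with ovalbumin, ATP-MgCl2, DTT / Controls: wells without proteasome as full block, compound-free enzyme plus substrate as uninhibited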
T cruzi inh = blocks replication of Trypanosoma cruzi. inhibition, % (no concentration beside the values). 300,000 tested, 1.4% active. T. cruzi beta-gal in NIH3T3, luminescence, 90 h. AID 1885;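 active means mean inhibition across valid replicates above about 55%, limit read from the data; inconclusive means mean below that limit but half or more replicates reach it; inactive means mean below it, under half of replicates reach it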;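 further: signal also drops with host cell toxicity which is not excluded here; 0% = plate median of DMSO wells and 100% = zero luminescence signal; higher percent means less beta-gal luminescence so fewer parasites; stock transfer was 50 nL into about 50 µL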
Beta2AR agonist = activates human beta-2 adrenergic receptor causing internalization; P07550; Am2.2-beta2AR cells, FAP receptor internalization, flow cytometry; reference of the scale not given here; response, % (no concentration beside the values); 340,000 tested, 0.43% active;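 active means response above a set limit, near 3 SD of response in nonfluorescent compounds, cut at about 42% in these data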;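 further: stock transfer was 100 nL into about 11 µL; a reference agonist was the positive control; negative values mostly stem from fluorescent compounds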
* marks the source's active call; other numbers are inactive results; i = inactive; ? = inconclusive; nt = not tested or not shown.

The opening 2 records as a preview:
SMILES	Beta apoptosis	LANA-H2B inh	Calb FLC	A1 inh	RanGTP-Impb inh	UCH37 inh	T cruzi inh	Beta2AR agonist
CCOc1ccc(S(=O)(=O)NCCCn2ccnc2)cc1NC(C)=O	0	4.3	0	0.3	4.3	4.3	1	8
COc1ccc(N(C)C(=O)Nc2ccc3c(c2)nnn3C)cc1	-5	2.0	23	-0.4	-0.3	0.8	-5	8

The whole of this part, from the start:
SMILES	Beta apoptosis	LANA-H2B inh	Calb FLC	A1 inh	RanGTP-Impb inh	UCH37 inh	T cruzi inh	Beta2AR agonist
CCOc1ccc(S(=O)(=O)NCCCn2ccnc2)cc1NC(C)=O	0	4.3	0	0.3	4.3	4.3	1	8
COc1ccc(N(C)C(=O)Nc2ccc3c(c2)nnn3C)cc1	-5	2.0	23	-0.4	-0.3	0.8	-5	8
Cc1ccc(-c2nc(C#N)c(NCC3CCCO3)o2)cc1 (stereo not given)	0	4.4	-22	0.6	0.8	-136	3	-3
CCC(CC)c1nnc(NC(=O)c2ccc3ccccc3n2)s1	8	2.7	13	-3.9	3.3	0.1	2	1
CCN(CC)C(=O)C(C)N(C#N)c1nc(SC)nc(N(C)C)n1 (stereo not given)	-15	2.9	-5	0.3	2.9	1.4	16	3
CN1CCN(c2ccc(S(=O)(=O)Nc3ccccc3)cc2[N+](=O)[O-])CC1	5	-0.4	-21	0.6	2.8	5.9	19	7
C[N+]1(C)CC2=Cc3ccccc3CC2C1 (stereo not given)	-5	3.1	-35	0.2	2.8	1.6	-22	0
COC(=O)c1cc(CSC(=N)N)ccc1OCCC(C)C	1	-3.6	-1	0.5	2.9	2.5	47	-1
COc1ccccc1/C=C/C(=O)N1CCN(S(=O)(=O)c2cc(C)ccc2C)CC1	0	1.0	nt	-1.1	nt	0.2	nt	1
CC(=O)N1CCN(S(=O)(=O)c2ccc(S(=O)(=O)NCC(C)C)cc2)CC1	-11	4.4	-5	0.8	0.6	0.5	-2	3
COc1cc(NC(=O)CN(C)Cc2ccc(OC(F)F)cc2)c(C)cc1[N+](=O)[O-]	-5	1.9	-3	1.4	-2.4	7.0	42	-1
O=C(C(=O)N1CCc2ccccc2C1)c1cn(CC(=O)N2CCCCC2)c2ccccc12	0	-4.6	-4	-0.1	0.5	5.8	4	-10
COc1ccccc1NC(=S)N1CCn2cccc2C1c1cccnc1 (stereo not given)	-3	-0.7	-26	1.0	-1.4	-0.6	10	-1
CC(=O)c1ccccc1NC(=O)COC(=O)CN1C(=O)C2CCCCC2C1=O (stereo not given)	-7	-5.4	nt	1.3	nt	-0.4	nt	-1
COCCNC(=O)CSCc1cc(C)cc(C)c1	1	1.5	2	1.5	4.0	5.1	-1	1
O=Cc1ccccc1OCCCOc1cccc2cccnc12	-4	3.0	-4	1.3	5.1	4.8	-9	-8
O=C(CCCn1c(=S)[nH]c2cc3c(cc2c1=O)OCO3)N1CCN(c2ccc(Cl)cc2)CC1	-2	-2.9	55	1.3	-1.1	1.3	32	15
COCCNC(=O)C1CC(c2cccc([N+](=O)[O-])c2)=NO1 (stereo not given)	-5	-0.1	13	0.3	-2.0	0.5	-5	-3
CCCC(C)CO (stereo not given)	-2	-5.1	nt	0.3	nt	1.1	nt	2
CN(C)S(=O)(=O)c1ccc(Cl)c(NC(=O)CNC2(C)CCS(=O)(=O)C2)c1 (stereo not given)	-3	-3.3	nt	-0.4	nt	-0.4	nt	-5
O=C(c1ccc(S(=O)(=O)N2CCCC2)cc1)N1CCN(Cc2ccc3c(c2)OCO3)CC1	2	3.5	-20	1.5	4.4	2.5	1	6
CN(C(=O)COC(=O)Cc1c[nH]c2ccccc12)c1c(N)n(Cc2ccccc2)c(=O)[nH]c1=O	-6	0.0	nt	-0.4	nt	7.4	nt	-8
Cn1c(SCC(=O)Nc2ccc(F)cc2)nc2c([nH]c3ccccc32)c1=O	30	2.1	-2	0.9	2.7	-2.9	-26	0
Cc1ccc(Oc2ncc(-c3ccc(Cl)cc3)cn2)cc1	1	1.9	0	-1.4	1.3	3.2	-4	4
COc1ccc(NS(=O)(=O)c2ccc(NC(=O)C3CC3)cc2)cc1	nt	-0.6	0	0.8	-3.3	2.4	0	-4
O=C(N/N=C1/CC2CCC1C2)c1cc2ccccc2cc1O (stereo not given)	5	4.8	-8	-0.4	-4.9	nt	-33	0
COC(=O)c1cc(-c2ccccc2)sc1NC(=O)CN1C(=O)c2ccccc2C1=O	1	1.0	-2	-0.3	-2.3	-0.5	-9	-5
Cc1nc2scc(C)n2c(=O)c1S(=O)(=O)NCc1ccccc1	4	-0.7	-5	-0.1	-0.5	-157	-4	0
CCNC(=O)C(=O)Nc1ccc(OC)c(Cl)c1	0	1.4	7	1.4	-3.6	-0.3	-27	4
Cc1ccc(S(=O)(=O)N2[C@@H](c3ccc(Cl)cc3)C(C(=O)O)=CC[C@H]2c2ccc(C(C)C)cc2)cc1	1	7.9	nt	-1.0	nt	7.1	nt	-7
Cc1cccc(C(=O)NNC(=O)c2ccccc2-n2cccc2)c1	-2	-2.0	14	-0.3	6.5	-1.0	-3	-3
C=CCNS(=O)(=O)c1nc(C)c(Cl)c(C)c1C#N	-5	-2.3	24	1.8	-0.3	6.8	-14	-10
O=C(C1CC(=O)N(c2ccc(Cl)cc2)C1)N1CCOCC1 (stereo not given)	-1	28*	1	-0.7	-5.0	4.5	8	-3
O=[N+]([O-])c1ccc(/C=N/Nc2nc(N3CCCC3)nc(N3CCCC3)n2)o1	1	1.4	?	0.4	1.0	nt	64*	-8
Cn1cnc([N+](=O)[O-])c1Sc1nnc(-c2cccnc2)n1C	-3	0.1	-1	1.8	3.5	5.6	-2	-8
Cc1ccccc1-c1nnc2c3ccccc3c(C)nn12	1	5.1	9	-0.4	0.6	-1.7	16	-11
COc1ccc(/C=N/Nc2ncc(-c3ccccc3)cn2)c(OC)c1	9	1.2	-7	-0.4	-1.1	nt	6	-4
O=C(Cc1ccccc1)Nc1ccc(N2CCOCC2)cc1N1CCOCC1	-2	1.2	8	0.7	-0.5	1.5	1	-10
CCc1ccc(N(C(=O)c2snc(C(N)=O)c2N)C(C(=O)NCC2CCCO2)c2cccs2)cc1 (stereo not given)	0	-7.5	14	-0.3	2.6	-37	19	3
Cc1cccc(NS(=O)(=O)c2nnc(NC(=O)C3CCCCC3)s2)c1	2	-0.4	-3	-0.5	1.7	1.8	-4	3
O=C(Nc1ccccc1Br)c1ccccc1-c1ccccc1	3	1.1	7	-0.3	3.7	3.5	-18	-4
COc1ccc(CNC(=O)c2ccccc2NS(C)(=O)=O)cc1	2	6.8	6	0.3	-1.1	nt	-14	1
CSc1ccc(/C=N/Nc2nc(C)cc(C)n2)cc1	-5	-3.8	29	-1.0	0.0	nt	-8	2
COc1cccc(-n2nnnc2SCC(=O)NCc2ccc3c(c2)OCO3)c1	-1	3.3	-27	-0.6	4.2	1.5	0	0
COc1ccc(OC)c(-n2c(SCC(C)=O)nnc2-c2cccc(S(=O)(=O)N(C)C)c2)c1	-10	0.6	-1	0.3	-7.3	2.0	-3	11
CCNc1nnc(CSc2nc3ccccc3s2)s1	-18	-3.1	14	-6.6	18*	0.8	6	-3
N#Cc1c(C(F)(F)F)cc(-c2ccccc2)[nH]c1=O	5	2.7	20	0.3	0.3	i	-10	3
O=C(c1ccccc1)c1cc([N+](=O)[O-])ccc1N1CCOCC1	nt	-0.1	-6	-2.2	0.1	8.0	-14	16
CC1Oc2ccccc2N(CC(=O)Nc2ccc(F)cc2)C1=O (stereo not given)	-3	-4.0	-13	-0.2	-0.4	5.1	-5	2
COc1cccc(-c2nc(-c3ccc(NC(=O)c4cccnc4)cc3)no2)c1	114*	6.8	0	0.5	2.9	-13	-1	12
CC(=O)c1nn(-c2cccc(Br)c2)cc1C(=O)c1ccc2ccccc2c1	9	1.3	-8	nt	?	5.6	-7	-2
C=CCn1c(=O)c2ccccc2n2c(SCC(=O)Nc3cc(C)on3)nnc12	-1	2.6	14	-0.6	2.7	0.3	6	11
Cc1ccc(CC(=O)Nc2ccc(F)c([N+](=O)[O-])c2)cc1	-2	7.8	-1	-0.7	4.7	4.6	3	0
COc1ccc(/C=C(/NC(=O)c2ccc(Br)cc2)C(=O)N2CCOCC2)cc1	nt	3.1	-3	0.1	?	1.4	-5	4
Cc1cc(C)n2nc(CC(=O)NNC(=O)c3ccccc3Cl)nc2n1	0	1.7	-6	1.0	0.3	4.0	4	3
COc1ccc(/C(C)=N/NC(=O)Cc2ccc(Cl)cc2)cc1	4	-4.0	8	1.0	7.4	nt	-9	6
CCC(C)(C)n1nnnc1C(c1ccccc1)N1CCc2ccccc2C1 (stereo not given)	5	4.4	-6	-0.3	-1.0	-3.2	45	-2
CCCn1nc(C(=O)NCC2COc3ccccc3O2)c2ccccc2c1=O (stereo not given)	4	2.4	nt	0.1	nt	-2.6	nt	13
C=C1CCN([C@@H](CC(C)C)C(=O)NCCC(C)C)S(=O)(=O)c2ccccc21	-6	0.0	-6	1.2	-0.3	1.3	35	-1
CCCOc1ccc(CSc2nnc(CCC)n2N)cc1	nt	-1.5	2	0.9	6.8	1.3	-24	-7
(cont.)
SMILES	Beta apoptosis	LANA-H2B inh	Calb FLC	A1 inh	RanGTP-Impb inh	UCH37 inh	T cruzi inh	Beta2AR agonist
Cc1ccc(Nc2nc(Oc3ccc(OCc4ccccc4)nn3)nc(N3CCOCC3)n2)cc1	2	-0.5	4	-0.9	5.2	6.0	29	6
COC(=O)c1ccc(-c2noc(CN(Cc3nccn3C)C(C)C)n2)cc1	-6	-0.5	-6	-0.1	2.7	-0.2	-6	-4
CCOC(=O)C(=N/O)/C(C)=N/NC(=O)C(=O)Nc1cc(Cl)ccc1Cl	nt	0.2	1	-1.0	?	nt	-18	2
Cc1cc(C)nc(NS(=O)(=O)c2ccc(NC(=S)NC(=O)C3CCCC3)cc2)n1	-5	-4.1	41	-0.2	1.3	5.0	-15	4
Cc1ccccc1NC(=O)NC1CCCCC1C (stereo not given)	-4	-5.7	-24	-0.4	-0.8	3.4	-7	15
Cc1ccc(Nc2nc(N)c([N+](=O)[O-])c(NCCO)n2)cc1	-6	3.7	2	0.3	2.5	16	-3	-1
Cc1ccc(S(=O)(=O)CC(=O)Nc2nc3ccccc3s2)cc1	-1	-2.5	8	0.4	5.0	3.4	-5	8
NNC(=O)c1cc2cc(OC(F)(F)F)ccc2[nH]1	nt	-1.2	7	0.2	0.2	4.4	6	11
CCOC(=O)CNC(=O)CSc1nnc(C)c(=O)[nH]1	nt	-0.9	5	0.0	3.3	1.2	-6	0
O=C(COc1ccc(Br)cc1)Nc1nnc(-c2cccnc2)s1	5	-2.6	17	0.0	4.3	0.7	-9	nt
C=CCn1c(CSc2nc3ccccc3s2)nnc1SCC(=O)OCC	5	5.6	-4	0.5	-1.5	2.6	-8	3
CSc1cccc(CN(C)C(=O)C2CCC(=O)N(CCCN3CCCC3=O)C2)c1 (stereo not given)	-5	-0.2	-3	-1.4	1.4	3.4	11	-2
CCn1c(CNc2ccc(Cl)cc2)nnc1SCc1ccc(Cl)cc1	2	0.4	1	0.3	1.2	5.8	17	-11
S=c1[nH]c(-c2ccccc2)cn1/N=C/c1cccs1	5	5.6	-3	0.4	6.0	nt	-5	-13
